T cruzi repl: inhibitors of intracellular T. cruzi growth, primary screen, luminescence, NIH3T3 host cells; T. cruzi beta-gal in NIH3T3, 90 h; inhibition, % (test concentration not listed); hit rate 1.4% among 300,000; AID 1885, 2009;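 active = mean inhibition across valid replicates above about 55%, limit read from the data; inconclusive = mean below that limit but half or more replicates reach it; inactive = mean below it, under half of replicates reach it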;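 note: signal also drops with host cell toxicity which is not excluded here; 0% = plate median of DMSO wells and 100% = zero luminescence signal; higher percent means less beta-gal luminescence so fewer parasites; stock transfer was 50 nL into about 50 µL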
RanGTP-Imp inh: inhibitors of RanGTP-importin-beta interaction, primary screen, biochemical, FRET, CFP-Ran, YFP-importin-beta, homogeneous; Ran GTPase (GTP-bound) - importin-beta complex; cell-free CFP-Ran/YFP-importin-beta FRET ratio; inhibition, % (test concentration not listed); hit rate 1.1% among 300,000; AID 2216, 2009;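 active = most replicates above 15%; inconclusive = exactly half above 15%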;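 note: 0% = DMSO wells and 100% = Ran loaded with GDP instead of GTP; wells of about 40 µL received 100 nL stock; the first replicate is given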
Calb FLC: C. albicans growth inhibition with fluconazole, primary screen, CaCi-2 strain, Alamar Blue fluorescence; hit rate 0.57% among 300,000; C. albicans CaCi-2 (fluconazole-resistant clinical isolate) + fluconazole, 48 h; growth inhibition, % (concentration not given with the values);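 active = most replicates above 75%; inconclusive = exactly half above 75%; inactive = most below 75%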;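 note: all wells also contain fluconazole at 8 µg/ml as a sub-toxic cotreatment; 0% = median of DMSO wells and 100% = median of geldanamycin control wells; wells of about 8 µL received 7.5 nL stock; the first replicate is given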
UCH37 DUB inh: inhibitors of human UCH37 deubiquitinase, primary screen, biochemical, Ub-AMC cleavage, fluorescence. AID 588478, 2011. inhibition, % (no concentration beside the values). hit rate 0.33% among 330,000. Ubiquitin carboxyl-terminal hydrolase isozyme L5 (Homo sapiens), Q9Y5K5. purified proteasome/UCH37;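 active = mean of two replicates above 20%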;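 note: 0% = compound-free wells with enzyme and 100% = wells lacking proteasome; stock transfer was 100 nL into about 20 µL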
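Reagent: Ub-AMC substrate; assay system: Proteasome-associated human UCH37 deubiquitinase; controls: no-proteasome and no-compound wells; read-out: % inhibition of Ub-AMC cleavage fluorescence; timing: 30 min preincubation with enzyme, 25 min cleavage at room temperature; signal: AMC fluorescence from Ub-AMC cleavage, excitation 355 nm, emission 460 nm; buffer or medium: Tris-HCl pH 7.4 plus ovalbumin, ATP-MgCl2, DTT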
Beta2AR agonist: beta2AR agonists driving receptor internalization, primary screen, cell-based, FAP fluorogen, flow cytometry | Am2.2-beta2AR cells; reference of the scale not given here | hit rate 0.43% among 340,000 | response, % (test concentration not listed) | AID 504454, 2011;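 active = response above a set limit, near 3 SD of response in nonfluorescent compounds, cut at about 42% in these data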;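 note: stock transfer was 100 nL into about 11 µL; a reference agonist was the positive control; negative values mostly stem from fluorescent compounds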
LANA-H2A inh: blockers of LANA interaction with H2A/H2B – biochemical, FP readout, HTS, primary screen. Protein LANA1 (Human herpesvirus 8 type P (isolate GK18)), Q9QR71. cell-free LANA-H2A/H2B peptide, fluorescence polarization. inhibition, % (concentration not given with the values). hit rate 0.6% among 320,000. AID 2629, 2010; in the data active = inhibition mostly above about 10%, no sharp cut-off; inactive = mostly below about 6.7%;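 note: stock transfer was 7.5 nL into about 10 µL; 0% = median of vehicle wells and 100% = median of positive control wells; one replicate is shown; the record names a cut of 25% in any replicate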
Target sequence (Q9QR71 whole entry, looked up): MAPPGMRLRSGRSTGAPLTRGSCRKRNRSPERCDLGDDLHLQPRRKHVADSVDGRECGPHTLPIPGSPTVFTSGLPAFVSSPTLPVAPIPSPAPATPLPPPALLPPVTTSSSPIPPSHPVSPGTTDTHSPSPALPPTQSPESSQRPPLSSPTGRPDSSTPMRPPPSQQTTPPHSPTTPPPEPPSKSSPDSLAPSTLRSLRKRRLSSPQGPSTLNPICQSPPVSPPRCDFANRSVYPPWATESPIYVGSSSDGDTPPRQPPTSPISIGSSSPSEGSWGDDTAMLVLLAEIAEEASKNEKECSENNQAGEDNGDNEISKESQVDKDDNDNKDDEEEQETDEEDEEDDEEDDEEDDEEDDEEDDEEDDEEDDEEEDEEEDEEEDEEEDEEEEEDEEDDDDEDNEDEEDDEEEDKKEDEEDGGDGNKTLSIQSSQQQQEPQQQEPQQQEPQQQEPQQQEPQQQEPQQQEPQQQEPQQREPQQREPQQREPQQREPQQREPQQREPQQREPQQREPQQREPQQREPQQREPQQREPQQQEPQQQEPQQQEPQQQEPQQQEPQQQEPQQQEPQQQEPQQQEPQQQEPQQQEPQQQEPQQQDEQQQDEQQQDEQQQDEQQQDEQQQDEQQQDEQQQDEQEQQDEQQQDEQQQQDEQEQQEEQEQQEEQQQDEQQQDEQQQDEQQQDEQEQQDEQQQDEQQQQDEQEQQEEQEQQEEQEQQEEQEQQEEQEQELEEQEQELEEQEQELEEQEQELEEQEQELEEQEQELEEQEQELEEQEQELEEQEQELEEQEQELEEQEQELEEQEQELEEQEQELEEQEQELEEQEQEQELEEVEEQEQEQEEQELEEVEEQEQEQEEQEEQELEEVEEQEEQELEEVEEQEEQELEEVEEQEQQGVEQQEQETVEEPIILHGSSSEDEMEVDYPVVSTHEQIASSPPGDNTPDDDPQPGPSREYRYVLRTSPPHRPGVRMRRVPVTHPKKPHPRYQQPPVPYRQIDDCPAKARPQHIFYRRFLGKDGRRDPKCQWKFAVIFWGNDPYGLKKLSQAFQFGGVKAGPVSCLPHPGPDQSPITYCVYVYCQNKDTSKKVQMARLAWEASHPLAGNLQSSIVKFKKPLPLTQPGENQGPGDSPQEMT
A1 inh: caspase 3/7 activation in MEF A1-2A-BIM cells, primary screen, A1 inhibitor project, cell-based, luminescence, HTS; hit rate 0.066% among 330,000; caspase activation, % (test concentration not listed); Caspase-Glo 3/7 luminescence, 3 h; percent of clofoctol response, vehicle zero;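 active = over half of replicate activation scores above 10%, or exactly half above 10 with the replicate mean above 10; inconclusive = replicate mean below 10 yet half the replicates above 10; inactive = over half of replicates below 10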;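 note: wells of about 30 µL received 50 nL stock; many hits fall short of the cut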
Beta apoptosis: inhibitors of cytokine-induced beta cell apoptosis, primary screen, luminescence. INS-1E cytokine-induced death, ATP luminescence, 48 h; percent of positive-control rescue, neutral wells zero. protection from apoptosis, % (test concentration not listed). hit rate 0.8% among 300,000. AID 435005, 2010;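 active = all replicates at 75% or more, or half of them and the mean; inconclusive = half reach 75% but not the mean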;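 note: 0% = cytokine-treated negative control wells and 100% = positive control rescue; higher means more ATP so stronger rescue from cytokine killing; wells of about 40 µL received 100 nL stock; the first replicate is given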
Active calls of the source: *; ? = inconclusive; / = not tested or not shown.

SMILES	T cruzi repl	RanGTP-Imp inh	Calb FLC	UCH37 DUB inh	Beta2AR agonist	LANA-H2A inh	A1 inh	Beta apoptosis
CCC/C(=N/NC(=O)c1ccc2c(c1)OCO2)c1cccs1	0.6	2.6	-3.8	/	1.9	2.6	0.1	-4.4
CC1=C(C)[N+](=O)C2CCCCC2N1[O-] (configuration not stated)	6.3	5.6	3.8	9.2	-2.0	-2.4	-0.2	-8.5
CCOC(=O)N1CCN(C(=O)CCN2C(=O)/C(=C\c3ccccc3OC)SC2=S)CC1	-6.0	4.7	-6.3	5.9	29.3	-0.4	1.6	-27.9
O=C(Nc1ccc(F)cc1F)C1CCCN1S(=O)(=O)c1ccc(-c2ccc(=O)[nH]n2)s1 (configuration not stated)	5.6	-0.6	3.1	0.7	-0.1	-4.9	-0.7	-4.0
CCNc1cc2n(c(=O)n1)CCc1cc(OC)c(OC)cc1-2	-11.3	3.5	3.1	-130.6	-15.8	2.9	0.1	-0.3
FC(F)(F)c1nc(NCc2cccnc2)c2ccccc2n1	-8.8	-1.2	19.5	-1.8	4.5	1.5	0.1	2.4
CCOc1ccccc1N1CCN(CC(O)COC2CCCc3ccccc32)CC1 (configuration not stated)	28.0	1.6	83.3*	0.0	2.3	5.6	0.5	3.4
COc1ccccc1-n1ccn(CC(=O)Nc2ccc(C)cc2Cl)c(=O)c1=O	12.2	7.2	7.1	2.8	3.4	-3.8	0.3	3.3
Cc1nnc(SCc2ccc(Cl)cc2)nc1/C=C/N(C)C	61.0*	-1.4	4.6	-2.9	-3.5	0.2	-0.2	-3.4
Cc1cccc2c1N(C)C(=O)C2=O	-21.4	-0.1	-60.7	1.5	5.2	-4.9	0.7	-4.2
S=C(Nc1cccc(Cl)c1)Nc1ccc2cn[nH]c2c1	-7.8	4.8	39.8	-0.1	2.7	3.1	-0.7	/
O=C(Nc1ccc(Cl)c(Cl)c1)Oc1ccc(NC(=O)c2ccco2)cc1	5.9	-0.1	-3.0	3.6	37.6	4.5	-2.4	53.5
COc1ccccc1NC(=O)CSc1nnc(NC(=O)C2CCC2)s1	-6.7	3.0	-15.0	5.3	4.0	3.3	0.3	-1.4
CCCCNC(=O)Nc1nnc(C(C)(C)C)s1	7.2	-1.2	0.5	4.7	-9.8	1.6	-0.1	1.0
Cc1cccc(NC(=S)NC2CCN(Cc3ccccc3)CC2)c1C	42.7	0.5	-11.0	0.8	12.5	-3.9	0.0	-0.7
CC(=O)C1=C(C)NC(=O)NC1c1cc(Br)ccc1OCC(N)=O (configuration not stated)	5.2	-0.7	-8.5	-1.9	6.1	0.7	-0.9	-3.1
Cc1cccc(N2CC(O)(c3cccs3)[N+]3=C2CCCCC3)c1 (configuration not stated)	18.2	1.3	7.1	0.9	-1.6	0.5	-0.1	-21.1
Cc1cccc(-c2n[nH]c(=S)n2/N=C/c2ccc(C)s2)c1	17.1	0.5	-1.1	/	-4.6	7.3	1.1	1.5
O=S(=O)(NCc1ccccn1)c1ccccc1	-29.6	5.5	-32.3	5.1	1.6	0.4	0.0	-5.3
Cn1c(CNC(=O)c2ccco2)nnc1SCC(=O)N1CCN(c2ccccc2)CC1	1.7	-6.6	1.4	1.3	-1.7	-5.1	0.1	/
O=C(COc1ccc(F)cc1)Nc1nnc(-c2ccncc2)s1	-26.2	-11.7	4.1	-54.5	1.0	0.4	-0.2	-2.9
Cc1ccc(CNc2ccc(N3CCOCC3)c(Cl)c2)cc1	-0.1	3.2	4.4	-1.0	-0.3	1.0	0.3	-2.5
CC1=Nc2ccc3ccccc3c2C1(C)C	2.7	-85.5	-27.6	-1.5	-1.6	-8.0	0.1	/
CC(NC(=O)Nc1ccc([N+](=O)[O-])cc1)C(c1ccccc1)N1CCOCC1 (configuration not stated)	-6.3	-1.4	0.1	4.9	7.1	4.0	-0.3	-0.9
CCn1ncc(Br)c1C(=O)Nc1ccc(C(=O)OC(C)C)cc1	11.6	-0.8	7.8	1.1	8.6	1.2	-0.5	2.6
Cc1cc(C)cc(NC(=O)CCN2CC(C)OC(C)C2)c1 (configuration not stated)	-7.7	5.6	-3.2	6.0	8.4	-0.2	1.2	/
CCN(CC(=O)N1CCCC1)S(=O)(=O)c1ccc(F)cc1	-4.9	2.6	3.9	1.7	-7.7	-2.1	0.1	/
CCn1c(/C=C/c2cc(Br)ccc2O)nc2ccccc2c1=O	-0.3	-9.3	7.8	-39.6	13.2	5.0	0.2	-3.3
COc1ccc(N2CCN(C3CC(=O)N(C)C3=O)CC2)cc1 (configuration not stated)	-7.7	2.9	-0.1	5.9	-2.5	-0.5	-1.2	-3.4
CCc1nnc(NC(=O)C2CCC(CNc3c(N4CCCCC4)c(=O)c3=O)CC2)s1 (configuration not stated)	-8.6	1.0	6.7	5.0	-10.9	1.2	0.0	2.6
COc1cc(Br)cc(/C=C/c2ccc3cccc(O)c3n2)c1OC	47.5	2.4	-8.0	-0.9	-3.3	-9.4	-0.6	16.2
CCCCCC(=O)NCc1c(C(F)(F)F)nn(C)c1N1CCOCC1	-10.2	2.0	-8.1	2.7	-3.3	-1.5	-0.8	-1.4
NC(=O)[C@H]1CC2(CC(c3cccc(NC(=O)[C@H]4CCC(=O)N4)c3)=NO2)CN1C(=O)c1ccccc1C(=O)c1ccccc1 (some centres not stated)	8.2	-2.2	-6.8	-1.1	2.0	-3.4	0.3	-1.2
CC(=O)NCCC(=O)Nc1cc(S(=O)(=O)N2CCOCC2)ccc1N1CCOCC1	-12.0	-0.8	-4.0	3.1	-2.6	-0.5	1.1	-0.9
CCN(CC)CCCNC(=O)c1cc2nc(-c3ccccc3)cc(C(F)(F)F)n2n1	6.7	0.1	-5.3	-10.8	-4.7	0.9	-1.0	-5.1
CC(NCc1cccn1C)c1ccccc1 (configuration not stated)	-8.6	?	0.9	1.7	-1.9	2.7	0.3	-3.3
COc1ccc2cc(CCNC(=O)c3c(-c4ccccc4Cl)noc3C)c(=O)[nH]c2c1	-1.4	8.0	0.8	3.4	-0.6	-2.8	-0.6	2.3
CC(C)c1ccc(NC2CCCN(C(=O)c3cscn3)C2)cc1 (configuration not stated)	-12.8	-1.6	-5.6	2.0	0.2	-0.6	0.2	-3.9
O=C(NCCc1ccc2c(c1)OCCO2)c1cc(F)cc(F)c1	-31.2	5.9	-17.9	3.4	4.5	0.6	-0.3	22.6
Cc1cc(=O)[nH]c(SCC(=O)Nc2ccccc2C)n1	-20.0	-1.0	-6.7	0.5	-2.3	-1.4	-0.1	-1.8

An excerpt of these results, field by field:
O=C(COc1ccc(F)cc1)Nc1nnc(-c2ccncc2)s1
  T cruzi repl: -26.2	RanGTP-Imp inh: -11.7	Calb FLC: 4.1	UCH37 DUB inh: -54.5	Beta2AR agonist: 1.0	LANA-H2A inh: 0.4	A1 inh: -0.2	Beta apoptosis: -2.9

Cc1ccc(CNc2ccc(N3CCOCC3)c(Cl)c2)cc1
  T cruzi repl: -0.1	RanGTP-Imp inh: 3.2	Calb FLC: 4.4	UCH37 DUB inh: -1.0	Beta2AR agonist: -0.3	LANA-H2A inh: 1.0	A1 inh: 0.3	Beta apoptosis: -2.5

CC1=Nc2ccc3ccccc3c2C1(C)C
  T cruzi repl: 2.7	RanGTP-Imp inh: -85.5	Calb FLC: -27.6	UCH37 DUB inh: -1.5	Beta2AR agonist: -1.6	LANA-H2A inh: -8.0	A1 inh: 0.1	Beta apoptosis: /

Later entries
SMILES	T cruzi repl	RanGTP-Imp inh	Calb FLC	UCH37 DUB inh	Beta2AR agonist	LANA-H2A inh	A1 inh	Beta apoptosis
CC(=O)Nc1nnc(/C=C/c2cccc([N+](=O)[O-])c2)s1	?	-0.2	-4.0	1.2	-7.2	2.4	-1.3	-0.2
CCOC(=O)CN1CC23C=CC(O2)C(C(=O)Nc2ccc(OC)cc2OC)C3C1=O (configuration not stated)	-9.8	-0.6	2.6	0.5	-5.0	-5.5	-0.3	0.4
CCN1C(=O)c2cccc3c(Cl)ccc1c23	13.7	-8.9	17.4	-1.6	10.7	-3.8	0.2	/
O=C(CN1C(=O)c2cccc3cccc(c23)C1=O)N1CCN(c2ccccn2)CC1	-13.6	-5.2	1.9	-3.5	8.0	-0.9	0.5	-0.7
CCOc1cccc(OCCOCCN(C)Cc2ccccc2)c1	16.0	2.4	-3.4	5.3	0.2	1.4	0.5	2.4
COc1ccc(S(=O)(=O)N2CCN(Cc3cccs3)CC2)cc1OC	/	/	/	-0.4	-1.9	-3.2	1.6	-2.2
Cc1nc2c(nnn2Cc2ccccc2)c(=O)[nH]1	6.9	-0.8	9.4	-2.0	1.2	-1.3	0.7	-1.0
CCCNc1ncnc2nc[nH]c12	-10.6	-1.3	2.0	2.4	4.1	-0.1	-0.5	-0.8
COc1cc(/C=C2\CCCc3c2nc2ccccc2c3C(=O)O)cc(OC)c1O	4.9	-4.7	7.4	14.8	-4.6	2.6	-0.8	-7.5
COc1ccc(-c2cc(N)n(S(=O)(=O)c3ccc(C)cc3)n2)c(OC)c1	-3.2	0.2	-14.1	4.9	1.3	3.6	0.3	-9.1
O=C(O)/C=C/c1ccc(S(=O)(=O)N2CCCCCC2)cc1	-4.7	-1.7	2.3	-2.7	7.2	-1.9	0.2	/
CCCCN(C)C(=O)c1nc2ccccn2c1CN1CCC[C@H]1CO	-10.4	0.1	-3.9	0.2	-8.3	-0.9	0.9	4.3
O=C(N/N=C/c1ccncc1)c1cc(Br)ccc1OCc1ccccc1	49.9	-3.1	-11.4	/	-17.7	8.6	0.2	3.3
Cc1ccc(NC(=O)CNCc2ccccn2)cc1S(=O)(=O)N(C)C	-0.3	1.4	-13.5	5.5	-3.1	/	-1.8	-7.6
COC(=O)c1cccc(NC(=O)c2cccs2)c1C	-5.4	5.3	-6.1	1.0	-1.6	2.2	0.4	/
COc1ccc(C(=O)C2CCCN(Cc3c(O)cccc3OC)C2)cc1OC (configuration not stated)	-8.8	-5.8	-19.4	3.6	-4.0	-0.8	-0.4	/
CC(C)(C)[C@H]1C=C(C(=O)Nc2ccccc2)O[C@@H](OCc2ccc(CO)cc2)C1	6.1	-3.8	2.3	3.9	-1.6	-1.1	-0.1	9.2
O=C(Cn1c(N2CCN(C/C=C/c3ccccc3)CC2)nc2ccccc21)c1ccccc1	27.6	3.5	5.0	5.7	/	-2.5	0.8	2.4
CN1Cc2c(N3CCOCC3)nc(SCc3ccccc3)c(C#N)c2CC1(C)C	57.7*	26.5*	13.0	0.2	6.4	14.3	0.9	-10.1
